NS1 inh: blocks influenza NS1 protein function | Potency, µM (titrated, usually from 46.1 µM), for the others: at the highest dose activity, positive = more growth | actives 0.4% (n = 270,000) | AID 2326 | S. cerevisiae slowed by influenza A NS1, growth recovery by OD600; further: actives are rising curves; nearly all actives have a fitted effect of over 50% in size
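OD600 was taken as the measure of yeast growth restored by compound in an NS1-expressing S. cerevisiae strain. Cells had been washed out of glucose medium and diluted 1:100 into galactose -URA medium, pH 6.0.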
Cruzain inh noDet: blocks cruzain activity in detergent-free assay. purified cruzain, Z-FR-AMC fluorescence, no detergent. P25779. actives 2.3% (n = 200,000). Potency, µM, for inactives: max response, negative = inhibition, most hits filed as inhibitors; active means well fitted curve in the direction sought with a large enough effect; inconclusive means small, poorly fitted or top-dose-only effect, or another doubt; inactive means no such curve, though single readings can be large; an effect the other way counts as inactive or inconclusive;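 further: plate controls were enzyme without inhibitor for no effect and buffer without enzyme for full effect; nearly all actives have a fitted effect of over 40% in size; top concentration of the series not given in the record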
Target sequence (P25779 123-467 limits assumed): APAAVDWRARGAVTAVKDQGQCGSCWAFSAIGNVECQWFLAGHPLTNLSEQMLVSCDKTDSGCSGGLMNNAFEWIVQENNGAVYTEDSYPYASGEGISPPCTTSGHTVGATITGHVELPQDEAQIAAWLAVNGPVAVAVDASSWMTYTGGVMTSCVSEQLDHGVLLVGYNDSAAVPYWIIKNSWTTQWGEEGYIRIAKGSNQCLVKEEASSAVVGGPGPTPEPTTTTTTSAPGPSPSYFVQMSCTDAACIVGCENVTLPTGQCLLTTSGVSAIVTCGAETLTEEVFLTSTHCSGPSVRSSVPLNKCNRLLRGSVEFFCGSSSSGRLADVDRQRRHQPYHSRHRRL
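Detergent-free condition (0.00005% Triton X-100) in acetate buffer pH 5.5 with DTT. 1.5 nM enzyme and compound were pre-mixed 15 min, then 2 uM Z-FR-AMC substrate added; reaction progress from fluorescence change between first and third reads (60 s).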
MARV entry inh: Marburg virus entry inhibition; Potency, µM (highest dose often 37.8 µM), for inactives: at the highest dose activity change, negative = inhibition, most hits filed as inhibitors; Marburg virus pseudotyped entry inhibition, cell reporter; control for the full effect not named in the record; about a third of the inactives were read at about 46 µM; actives 1.8% (n = 300,000); active = well fitted inhibition curve with a large enough effect; inconclusive = small, poorly fitted or top-dose-only effect, or effect the other way; inactive = flat fitted curve, though single readings scatter; tested in HEK293 cells; about a fifth of its hits are not listed in these tables; further: on the % scale 0 is the no-effect control and ±100 the full control effect; luciferase read-out
StopGo reporter: FMDV 2A StopGo reporter, luciferase signal | human cells with a luciferase reporter of 2A StopGo recoding; control for the full effect not named in the record | actives 1.2% (n = 410,000) | Potency, µM (series often up to 57.9 µM), without a hit: at the highest dose signal change, negative = less light; active = well fitted falling curve with a large enough effect; inconclusive = small, poorly fitted or top-dose-only effect; inactive = no such curve, though single readings can be large or run the other way; tested in HEK293T cells; further: on the % scale 0 is the no-effect control and ±100 the full control effect; nearly all actives have a fitted effect of over 45% in size; luciferase light after 4 h
RE007 growth inh: less growth of the S. pombe RE007 Vpr strain | S. pombe RE007 Vpr strain, BacTiter-Glo ATP luminescence, 24 h; control for the full effect not named in the record | actives 0.21% (n = 360,000) | Potency, µM (series often up to 92.2 µM), for the others: at the highest dose activity change, negative = less growth; active = well fitted falling curve with a large enough effect; inconclusive = small, poorly fitted or top-dose-only effect; inactive = no such curve, though single readings can be large or run the other way;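 further: on the % scale 0 is the no-effect control and ±100 the full control effect; nearly all actives have a fitted effect of over 50% in size; the assay follows cell death caused by Vpr and the record does not say whether a fall means rescue or toxicity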
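Fission yeast RE007 carrying one integrated HIV-1 vpr copy, seeded at OD 0.01 in PMG+AL medium with 23 nL pinned compound. Grown 24 h at 30 degrees; viability read by BacTiter-Glo luminescence after 5 min.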
Cruzain Triton: blocks cruzain activity in presence of Triton detergent; actives 0.43% (n = 200,000); Potency, µM, inactives show max response, negative = inhibition, actives largely listed as inhibitors; P25779; AID 1478; purified cruzain, Z-FR-AMC fluorescence, 0.01% Triton; active means well fitted curve in the direction sought with a large enough effect; inconclusive means small, poorly fitted or top-dose-only effect, or another doubt; inactive means no such curve, though single readings can be large; an effect the other way counts as inactive or inconclusive;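 further: plate controls were neutral wells for no effect and buffer without enzyme for full effect; nearly all actives have a fitted effect of over 40% in size; top concentration of the series not given in the record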
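Read-out: AMC fluorescence (360 nm excitation, 450 nm emission), four reads over 2 min, first-to-third difference used. Conditions: cruzain 1.5 nM, Z-FR-AMC 2 uM, pH 5.5 acetate, 5 mM DTT, 0.01% Triton X-100.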
SARS PLP yeast: SARS-CoV PLP inhibition in yeast; S. cerevisiae expressing SARS-CoV PLpro, growth rescue; control for the full effect not named in the record; Potency, µM (highest dose often 32.9 µM), for the others: at the top dose activity, positive = growth rescue; actives 0.19% (n = 330,000); AID 485353; further: 0% is about no effect; nearly all actives have a fitted effect of over 55% in size; growth read by luminescence after 48 h
LASV entry inh: inhibitors of Lassa virus binding or cell entry | Lassa virus pseudotype entry inhibition, cell reporter; control for the full effect not named in the record | Potency, µM (doses to about 37.9 µM), inactives show at the top dose activity change, negative = inhibition, most hits filed as inhibitors | actives 1.2% (n = 300,000) | AID 540256; active means well fitted inhibition curve with a large enough effect; inconclusive means small, poorly fitted or top-dose-only effect, or effect the other way; inactive means flat fitted curve, though single readings scatter; tested in HEK293 cells; further: on the % scale 0 is the no-effect control and ±100 the full control effect; nearly all actives have a fitted effect of over 50% in size; luciferase read-out
Starred values were filed as active, the others as inactive; u = inconclusive; x = no result given; & = joins results of further samples; [ ] = another dose, or the depositor's remark. Unless noted, the call rests on the fitted dose curve; in most records, active means well fitted rising curve with a large enough effect; inconclusive means small, poorly fitted or top-dose-only effect; inactive means no such curve, though single readings can be large or run the other way. Potency means the concentration at half of the fitted maximal effect.

nr	SMILES	NS1 inh	Cruzain inh noDet	MARV entry inh	StopGo reporter	RE007 growth inh	Cruzain Triton	SARS PLP yeast	LASV entry inh
1	CCOc1ccccc1-n1c(O)c(C=NCCCn2ccnc2)c(=O)[nH]c1=O	-5%	x	-26%	-8%	-2%	x	0%	3%
2	COc1cc(NC(=O)Cc2c(C(=O)O)n(C)c3ccccc23)cc(OC)c1OC	x	x	0%	-14%	-3%	x	5%	6%
3	COc1ccccc1-c1c(C)nn2c(-c3ccccc3)cc(C)nc12	1%	x	u	u	3%	x	-6%	u
4	COc1ccc(N2CCN(C(CNC(=O)c3ccc4c(c3)OCO4)c3ccco3)CC2)cc1 (configuration not stated)	x	x	-19%[46.1 µM]	u	1%	x	3%	-22%
5	COCc1nnc(NC(=O)c2cc(OC)c(OC)c(OC)c2)s1	x	-10%	2%[46.1 µM]	-17%	x	-2.9%	x	12%[46.1 µM]
6	Cc1ccc(C)c(OCC(O)CN2CCN(CCN3C(=O)c4cccc5cccc(c45)C3=O)CC2)c1 (configuration not stated)	5%	-5%	u	25µM*	17%	u	-6%	u
7	Cc1oc(-c2ccc(Cl)cc2)nc1CN1CCCC(C(=O)NCc2ccc(Cl)cc2)C1 (configuration not stated)	x	-13%	9%[46.1 µM]	35µM*	x	1.2%	x	10%[46.1 µM]
8	CCc1ccc(NC(=O)CSc2n[nH]c(C)c2[N+](=O)[O-])cc1	0%	u	0%	-16%	6%	1.7%	17%	-6%
9	CS(=O)(=O)N1CCN(C(=O)Nc2ccccc2)CC1	5%	x	u	-16%	0%	x	1%	7%
10	CCC(C)N(C(=O)C(F)(F)F)C(C(=O)NC1CCCCC1)c1ccncc1 (configuration not stated)	6%	14%	2%	3%	-8%	-1.2%	-5%	0%
11	CCSc1nc2c(sc3nc(C)cc(C)c32)c(=O)[nH]1	-10%	-1%	x	x	x	2.0%	-3%	x
12	CCCn1c(NCc2ccccc2C)nc2ccccc21	x	-3%	-1%[46.1 µM]	4%	x	-1.9%	x	4%[46.1 µM]
13	CCOC(=O)c1c(C)oc2nc(C)nc(N3CCN(c4ccc(C)cc4C)CC3)c12	x	-2%	x	9%	x	3.1%	x	-11%[46.1 µM]
14	CCOC(=O)C1=C(NC#N)OC(C)=C(C)C1c1ccc(O)cc1 (configuration not stated)	-25%	10%	3%	-26%	-16%	-4.7%	-8%	-13%
15	Cc1cc(C)n2nc(C(=O)NCc3ccccc3)nc2n1	8%	2%	34%	-17%	-24%	1.0%	6%	-9%
16	COc1cc(C)cc2oc(=O)c(CC(=O)N3C[C@H]4C[C@@H](C3)c3cccc(=O)n3C4)c(C)c12	18%	x	x	-13%	-25%	x	-6%	x
17	CCn1cc2nc(SCC(=O)Nc3ccc(OC)c(OC)c3)n(Cc3ccc(OC)cc3)c(=O)c2n1	0%	x	1%[46.1 µM]	0%	0%	x	3%	-15%[46.1 µM]
18	CCOc1ccccc1NC(=O)C(CC(C)C)NC(=O)C1CCC(C)CC1 (configuration not stated)	0%	-4%&2%	u	28%&6%	9%	-20%&-7.1%	-2%	21%[46.1 µM]
19	CCC(CC)N1CCN(CCc2ccccc2)C(CCO)C1 (configuration not stated)	0%	x	-17%[46.1 µM]	-18%	-1%	x	0%	19%
20	Cc1cc(C)nc(SCc2nnc(SCC(=O)Nc3c(C)cccc3C)o2)n1	1%	2%	-7%	18%	5%	3.7%	-4%	-4%
21	CCN1CCCc2cc(CN(CCN3CCOCC3)C(=S)Nc3ccccc3OC)ccc21	-13%	x	x	-10%	-4%	x	-1%	x
22	CC(=O)Nc1ccc(S(=O)(=O)N2CCN3CCCC3C2)cc1 (configuration not stated)	8%	x	x	-1%	4%	x	-5%	x
23	COC(=O)c1c(N)sc(C(=O)N2CCOCC2)c1C	3%	-1%	-4%	9%	3%	5.6%	-1%	18%
24	Cc1ccc(-c2nc(C)sc2CC(=O)NCc2ccco2)cc1	-7%	10%	-3%	-5%	4%	-1.1%	-5%	-7%
25	COc1cccc(NC(=O)CSCc2cc(=O)n3nc(C4CC4)sc3n2)c1	-1%	x	x	-17%	18%	x	-4%	x
26	CCn1c(=O)c(=O)[nH]c2cc(C(=O)NCC3CCCCC3)ccc21	8%	0%	-10%	u	-5%	-4.4%	-16%	3%
27	CC(C)S(=O)(=O)C/C(N)=N/OS(=O)(=O)c1ccc(Cl)cc1	3%	x	x	2%	18%	x	0%	x
28	CCCc1c(C(=O)N/N=C/c2ccncc2)nnn1-c1nonc1N	1%	x	x	12%	2%	x	3%	x
29	COc1cc(NC(=O)C2CCN(c3cnccn3)CC2)cc(OC)c1OC	-3%	x	x	-16%	-9%	x	u	x
30	COc1ccccc1N1CCN(C(c2cccs2)C(C)NS(=O)(=O)c2ccccc2)CC1 (configuration not stated)	x	6%	0%	-29%	8%	1.4%	0%	x
31	CCc1ccc(CNC(=O)Cc2ccc(NC(=O)N3CCSc4ncccc43)cc2)cc1	x	-8%	x	-14%	x	-11%	x	-17%[46.1 µM]
32	CC1CCN(C(=O)c2cc(S(=O)(=O)N3CCCCC3)c[nH]2)CC1	7%	x	x	-2%	-4%	x	7%	x
33	Cc1nnc(SCC(=O)Nc2ccc(F)cc2F)n(N)c1=O	5%	x	10%	-8%	-6%	x	7%	1%
34	CC1=NOC(=O)/C1=C/c1ccc(O)c(Br)c1	-3%	x	11%[46.1 µM]	25µM*	-6%	x	-4%	3%[46.1 µM]
35	O=S(=O)(NCC1CCN(c2ccc(S(=O)(=O)N3CCOCC3)cc2)CC1)c1ccc(F)cc1	-3%	x	u	u	-5%	x	4%	x
36	CCn1c(=N)n(CC(=O)c2ccc(OC)c(OC)c2)c2ccccc21	26%	-8%	u	u	-21%	0.1%	7%	5%
37	COCCC(=O)NC12CC3CC(CC(C3)C1)C2	-2%	15%	6%	25%	-7%	-0.8%	0%	32%[14.3 µM]
38	CC(=O)N1c2c(cc(Br)cc2S(=O)(=O)N2CCN(c3ccccc3F)CC2)CC1C (configuration not stated)	7%	x	u	u	-5%	x	-8%	x
39	Cc1cc(C)n2c(SCc3ccc(Br)cc3)nnc2n1	-39%	x	x	18%	6%	x	-2%	x
40	COc1cc(-c2nnc(NC(=O)CCS(=O)(=O)c3ccc(F)cc3)o2)cc(OC)c1OC	x	x	-27%	-14%	12%	x	3%	4%
41	Cn1c(=O)c2c(nc(SCC(=O)c3cccs3)n2Cc2ccc(F)cc2)n(C)c1=O	1%	1%	-3%	20%	10%	-0.1%	-7%	u
42	CCOc1ccc(NC(=O)CN(C)C(=O)c2ccc(=O)[nH]c2)cc1OCC	-5%	x	16%	-21%	11%	x	0%	13%
43	O=C(NCCc1nc2ccccc2n1Cc1c(F)cccc1Cl)c1ccco1	x	-8%	u	u	x	u	x	2%[46.1 µM]
44	C=Cc1cc2c(cc1O)CCC1C2CCC2(C)C(O)CCC12 (configuration not stated)	x	x	-4%	u	-12%	x	x	-27%
45	CC12CCC(C(=O)Nc3ccccc3Br)(C/C1=N\O)C2(C)C (configuration not stated)	-2%	-8%	0%	-23%	-1%	3.1%	-2%	-4%
46	Cc1ccc(Nc2ncnc(N)n2)cc1	3%	x	23%[46.1 µM]	20%	7%	x	0%	11%[46.1 µM]
47	O=C(COc1ccc2c3c(c(=O)oc2c1)CCCC3)NCc1cccnc1	0%	x	20%[46.1 µM]	-18%	11%	x	6%	6%[46.1 µM]
48	CC(=O)Nc1ccc(S(=O)(=O)Nc2cc(S(=O)(=O)N3CCCCC3)ccc2O)cc1	x	x	-1%[46.1 µM]	-12%	8%	x	4%	-26%
49	O=C(Cc1ccc([N+](=O)[O-])cc1)N1N=C2CCCCC2C1(O)C(F)(F)F (configuration not stated)	-6%	x	12%[14.2 µM]	-29%	5%	x	-2%	9%
50	Cc1ccc(NC(=S)NCC(C)CSc2ccc(Cl)cc2)cc1 (configuration not stated)	x	x	1%[46.1 µM]	14%	21%	x	-11%	24%
51	C/C=C/C(=O)N1c2ccccc2C(C)=CC1(C)C	x	x	1%[46.1 µM]	-22%	-12%	x	4%	0%
52	COc1ccccc1CNC(=O)CCC(=O)n1ncc2cc(C)ccc21	-8%	x	x	0%	-3%	x	3%	x
53	COc1cc(-c2nc(S(=O)(=O)c3ccc(C)cc3)c(N(C)C)o2)cc(OC)c1OC	2%	-5%	-2%&-19%	9%	-3%	-9.0%	1%	-24%
54	COc1ccc(NS(=O)(=O)c2ccc3c(c2)CCC(=O)N3)c(OC)c1	2%	-1%	21%	-5%	14%	12%	-3%	-1%
55	Nc1ccc(C(=O)OCCCc2nc3cc4ccccc4cc3[nH]2)cc1	4%	x	x	23%	-10%	x	-1%	x
56	COc1ccc(S(=O)(=O)N(C)c2ccc(C(=O)N3CCOCC3)cc2)cc1OC	-5%	-1%	7%	x	0%	3.8%	-3%	9%

(list continues)
nr	SMILES	NS1 inh	Cruzain inh noDet	MARV entry inh	StopGo reporter	RE007 growth inh	Cruzain Triton	SARS PLP yeast	LASV entry inh
57	C=CCNc1nc(N2CCCC2)nc2ccccc12	-18%	2%	u	-16%	-11%	6.6%	-4%	-6%
58	c1n[nH]c(NCc2ccc3c(c2)OCO3)n1	-3%	-4%	u	12%	6%[3.69 µM]	-2.3%	-6%	7%
59	CCOC(=O)c1c(C)oc2ncnc(NCCCN3CCN(c4cc(C)ccc4C)CC3)c12	x	-9%	x	u	x	0.2%	x	-5%[46.1 µM]
60	Cc1nc2nc(Cc3ccccc3)[nH]n2c(=O)c1Cc1ccccc1	-7%	11%	13%[46.1 µM]	-16%	-1%	4.7%	-4%	u
61	COc1ccc(CNC(=O)CCC(=O)N2CC3CCCN3c3ccccc32)cc1 (configuration not stated)	x	0%	x	8%	x	-5.3%	x	-4%[46.1 µM]

Source: PubChem (National Center for Advancing Translational Sciences (NCATS))
